Autofluor counter: counter-screen for toxin protease inhibitors: compound fluorescence. fluorescence intensity (no concentration beside the values). hit rate 3.1% among 360,000. compound autofluorescence counterscreen, microsphere flow cytometry; stronger effect = higher value. AID 624483;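 active means at least 3 SD above the mean of all compounds, about 16000 in these data; inconclusive means too few beads counted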;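 further: 100 nL of 1 mM stock went into each well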
RN4220 kill: growth inhibition of S. aureus RN4220, primary screen, OD600; inhibition, % (no concentration beside the values); AID 1259311, 2017; 16 h; hit rate 0.33% among 330,000;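 active means z-score of -3 or lower and OD600 up to 0.18 on both plates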;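 further: plate controls were untreated cells for no effect and reference antibiotic for full effect; stock transfer was 100 nL into about 80 µL; one replicate is shown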
Mtb hypoxia rep: PubChem AID 1159583; M. tuberculosis hypoxia-regulated fluorescent reporter, fluorescence; hit rate 0.1% among 300,000; fluorescence inhibition, % (concentration not given with the values);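 active means 35 to 45% if threefold the growth effect, above 45% if 1.5-fold the growth effect; inactive means the rest, general growth blockers included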;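 further: wells of about 50 µL received 100 nL stock; 0% = vehicle wells and 100% = reference inhibitor wells; whole bacteria with a GFP reporter of the hypoxia response; strong numbers were not always called active; many hits fall short of the cut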
PrP UTR inh: inhibition of PrP 5' UTR reporter expression; hit rate 0.35% among 340,000; cell-based PrP 5' UTR mRNA reporter, plate reader; inhibition, % (test concentration not listed);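 active means every replicate at 50% or more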;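 further: 0 = median of the neutral control wells; tested in H4 reporter cells; numbers are from one replicate; inactives centre near -14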
BJeLR viability: MLPCN primary cell-based screen for lethality selective to Ras in HRASV12 cells; BJeLR (HRASV12) viability, CellTiter-Glo ATP luminescence, 48 h; reference of the scale not given here; inhibition, % (concentration not given with the values); hit rate 0.17% among 300,000; AID 1554, 2009;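 active means replicate mean above 50%; inconclusive means above 50% but judged a plate artefact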;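 further: 50 nL library stock added to about 25 µL; numbers are from one replicate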
Sa ugtP lethal: growth inhibition of ugtP-null S. aureus, primary screen, RN4220 ugtP deletion, OD600 | 16 h; some inactives read as strong as hits | growth inhibition, % (no concentration beside the values) | hit rate 0.54% among 330,000 | AID 1259309, 2017;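 active means z-score under -3 and OD600 up to 0.15 on both plates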;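 further: plate controls were untreated wells for no effect and antibiotic for full effect; wells of about 80 µL received 100 nL stock; the first replicate is given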
Mtb hypoxia rep growth: second read-out of Mtb hypoxia rep, no call of its own (marks repeat the call); growth inhibition, %; measured here: M. tuberculosis growth (absorbance);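 0% = vehicle and 100% = reference antibiotic; read after six days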
An asterisk follows results filed as active; ? = inconclusive; nt = not tested or not shown.

SMILES	Autofluor counter	RN4220 kill	Mtb hypoxia rep	Mtb hypoxia rep growth	PrP UTR inh	BJeLR viability	Sa ugtP lethal
COc1ccc2cc(OCC(=O)NNC(=O)Nc3ccc(OC)c(OC)c3)ccc2c1	6054	2.8	0	-2	-3	-9	4
Cc1ccc(C(=O)NCCSc2ccc(Cl)cc2)cc1[N+](=O)[O-]	3029	-7.8	nt	nt	-31	-2	-14
COC(=O)CSC(=S)N1CCCC(C)C1 (stereo not given)	4489	2.3	7	20	12	10	5
CCOC(=O)c1nn(-c2ccc3c(c2)OCCO3)cc1O	3244	13	13	-3	-56	0	9
CC(C)(C)c1ccc(OCCNC(=O)Cc2ccc(F)cc2)cc1	2087	8.2	4	7	-12	5	6
CCCCN(CCCC)CP(=O)(c1ccccc1)c1ccccc1	3390	7.7	6	5	-12	-6	-9
COCCn1c(C)cc(C(=O)CSc2ccc3ccccc3n2)c1C	3494	5.8	11	10	-33	2	5
Cc1cccc(NC(=O)CSc2nc3ccccc3nc2N2CCCCC2)c1	4974	4.0	-1	-3	-5	19	-8
Cc1cc(C)cc(CC(CC(=O)Nc2ccc(Cl)cc2)C(=O)O)c1 (stereo not given)	3662	6.7	-12	8	-20	4	1
COc1ccc(-c2cn3cccnc3n2)cc1NC(=O)c1ccc(Br)o1	20830*	28	22	7	-20	3	-6
Cc1ccc(-c2c[n+](CC(=O)Nc3cc(=O)n(C)c(=O)n3C)c3n2CCC3)cc1	2246	-0.6	0	12	-9	-24	-5
CCn1c(N)c(C(=O)NCC2CCCO2)sc1=S (stereo not given)	3029	5.7	-3	4	-6	9	4
CCC/C=N/NC(=O)C1COc2ccccc2O1 (stereo not given)	3458	nt	nt	nt	-9	-6	nt
COc1ccc(CCNC(=O)CCc2ccsc2)cc1OC	3953	3.9	-10	-4	-22	-11	12
CC1=NC(C(F)(F)F)(C(F)(F)F)C2=C(CC(C)(C)CC2=O)N1Cc1ccco1	6949	4.4	2	-3	-24	-2	-10
O=C(NNC(=O)c1sccc1-n1cccc1)c1cccs1	4218	23	15	-3	-22	nt	7
CCOc1ccc(-c2nnc(SCC(=O)Nc3ccc4c(c3)c3ccccc3n4CC)n2N)cc1	16867*	6.3	6	7	-5	-7	9
COc1cccc(C2C(C(=O)c3cccs3)=C(O)C(=O)N2c2cc(C)on2)c1 (stereo not given)	5117	7.5	nt	nt	1	9	-4
O=C1C=C(Nc2ccc(Cl)cc2)CC(c2ccc(Cl)cc2)C1 (stereo not given)	9806	-5.4	3	0	-26	-7	-16
COc1ccc(NC(=O)CSc2nc(O)cc(=O)n2-c2ccc(OC)cc2)cc1	3836	6.1	-5	-2	-11	5	-4

Gathered by group, the entries above containing fluorine (2)
SMILES	Autofluor counter	RN4220 kill	Mtb hypoxia rep	Mtb hypoxia rep growth	PrP UTR inh	BJeLR viability	Sa ugtP lethal
CC(C)(C)c1ccc(OCCNC(=O)Cc2ccc(F)cc2)cc1	2087	8.2	4	7	-12	5	6
CC1=NC(C(F)(F)F)(C(F)(F)F)C2=C(CC(C)(C)CC2=O)N1Cc1ccco1	6949	4.4	2	-3	-24	-2	-10

(cont.)
SMILES	Autofluor counter	RN4220 kill	Mtb hypoxia rep	Mtb hypoxia rep growth	PrP UTR inh	BJeLR viability	Sa ugtP lethal
Cc1nnc(SCc2nc3ccccc3s2)n1-c1ccccc1	10027	-4.5	-8	5	-23	6	-10
CCCOc1ccc(C(=O)CCC(=O)OC(C)C(=O)Nc2ccc(NC(C)=O)cc2)cc1 (stereo not given)	nt	5.8	-4	4	-16	0	5
CCn1c(C)c(C)c2cc(C(=O)NCCCN3CCCCCC3)ccc21	6081	3.3	11	2	1	-5	10
CCOc1ccc(CN(C)CC(=O)NCc2ccccc2Cl)cc1	3460	12	4	15	-16	6	3
CC(=O)Nc1ccc(-c2nc3cc(Cl)ccc3o2)cc1	nt	-5.8	0	19	-73	14	-19
CCc1cc(C(=O)c2ccc(OC)cc2)c(NC(=O)CN2CCN(C)CC2)s1	4357	2.9	3	15	-4	5	33
O=C(C1CC(=O)N(c2ccccc2F)C1)N1CCOCC1 (stereo not given)	6258	4.2	5	1	-9	nt	6
COCCNc1nc(-c2cc(-c3ccc(Cl)cc3)on2)cc(C(C)C)n1	3135	0.9	-2	6	-21	6	12
Cc1ccccc1NC(=O)C1CCCN(S(=O)(=O)c2c(C)noc2C)C1 (stereo not given)	4723	0.3	nt	nt	-2	-2	2
COc1ccc(-c2nnc(SCC(=O)N3CCCCC3)o2)cc1OC	6606	-1.9	nt	nt	-7	-3	4
CC(=O)c1cccc(CN2CCC(CO)(Cc3ccccc3)CC2)c1	2233	1.6	14	7	1	-7	8
NC(=O)COC(=O)c1ccccc1OCc1ccc(Cl)cc1	3232	5.7	11	0	-26	-10	19
COC(=O)CSc1nnc(CNS(=O)(=O)c2ccc(C)cc2)n1C	2854	-2.2	nt	nt	-20	11	-1
COc1ccc(C2CC(=O)OC3=C2C(=O)CC(C)(C)C3)c(OC)c1 (stereo not given)	5084	2.7	6	2	-19	-16	-1
CCOc1ccc(CC(=O)N/N=C/c2sccc2C)cc1	5386	nt	nt	nt	-11	0	nt
Cc1nn(-c2ccccc2)c(N2CCCCC2)c1/C=N/NC(=O)c1ccncc1	2178	nt	nt	nt	-16	2	nt
c1ccc(-n2cnc3cc(NCc4ccccn4)ccc32)cc1	?	4.1	6	2	-27	-3	-6
Cn1c(CCN2CCCCC2)nc2cc(NS(=O)(=O)c3ccc(Cl)cc3)ccc21	10213	0.7	13	11	-24	-4	4
O=C(CC(=O)NN=Cc1c(Cl)cccc1Cl)NCc1ccccc1	nt	5.5	-11	-7	nt	nt	5
CCCCn1c(N)c(N(C(=O)CSc2nnnn2-c2ccccc2)C2CCCC2)c(=O)[nH]c1=O	4142	1.9	8	-4	-10	nt	2

Record cards, from the list above. Order of screens: Autofluor counter | RN4220 kill | Mtb hypoxia rep | Mtb hypoxia rep growth | PrP UTR inh | BJeLR viability | Sa ugtP lethal
`CCn1c(C)c(C)c2cc(C(=O)NCCCN3CCCCCC3)ccc21` across the screens: 6081 | 3.3 | 11 | 2 | 1 | -5 | 10
`Cc1ccccc1NC(=O)C1CCCN(S(=O)(=O)c2c(C)noc2C)C1` (stereo not given) across the screens: 4723 | 0.3 | nt | nt | -2 | -2 | 2
`CC(=O)c1cccc(CN2CCC(CO)(Cc3ccccc3)CC2)c1` across the screens: 2233 | 1.6 | 14 | 7 | 1 | -7 | 8
`Cc1nnc(SCc2nc3ccccc3s2)n1-c1ccccc1` across the screens: 10027 | -4.5 | -8 | 5 | -23 | 6 | -10
`COC(=O)CSc1nnc(CNS(=O)(=O)c2ccc(C)cc2)n1C` across the screens: 2854 | -2.2 | nt | nt | -20 | 11 | -1

Next part
SMILES	Autofluor counter	RN4220 kill	Mtb hypoxia rep	Mtb hypoxia rep growth	PrP UTR inh	BJeLR viability	Sa ugtP lethal
CC(CCCC(C)(C)O)NC(=O)c1ccc2oc(CCc3ccccc3)nc2c1 (stereo not given)	3521	0.0	5	8	-16	-4	10
N#C/C(=C\c1ccc(OCc2ccc(C(=O)O)cc2)cc1)C(=O)NCc1ccccc1	3164	nt	nt	nt	-20	-4	nt
Cc1ccc(C)c(S(=O)(=O)N2CCN(C(=O)c3cccnc3)CC2)c1	?	1.8	-4	13	-15	-2	0
CC1CN(CCc2ccccc2)c2nc3c(c(=O)n(CC(N)=O)c(=O)n3C)n2C1 (stereo not given)	4906	-1.6	-1	8	-17	-11	-3
CN(CC(=O)N1CCN(c2ccccc2)CC1)C1CCCc2ccccc21 (stereo not given)	3960	-1.6	7	10	-16	-2	12
Cc1ccc(OCC(=O)NNC(=O)c2ccc(-n3cncn3)c([N+](=O)[O-])c2)cc1	6027	0.7	4	2	-7	-1	3
CCNC(=O)C1CC(=O)N(CCCc2ccccc2)C(=Nc2ccccc2)S1 (stereo not given)	6011	3.7	9	-4	-7	-8	0
COc1ccc(C(=NN)c2ccc(OC)cc2)cc1	4359	11	15	7	-42	12	27
C/C(=N\S(=O)(=O)c1ccc(C)cc1)NC(=S)Nc1ccc(C)cc1	6336	-0.3	20	6	14	4	-6
CC(C)Sc1ncc(S(=O)(=O)c2ccccc2)c(=O)[nH]1	4542	4.1	7	9	-25	4	7
CCOP1(=O)OCC2OC(n3cnc4c(N)ncnc43)C(O)C2O1 (stereo not given)	2997	nt	nt	nt	-16	-6	nt
O=C(NN1C(=O)C2C(C1=O)C1C=CC2C12CC2)c1ccc(Cl)cc1 (stereo not given)	3455	8.9	-2	-3	-7	-2	0
COc1ccccc1NS(=O)(=O)c1ccc(N2CCOCC2)c(N)c1	3329	1.6	7	3	-4	nt	-2
c1ccc(CCNCC2COc3ccccc3O2)cc1 (stereo not given)	2969	0.3	-5	0	-20	0	4
Cc1cc(S(=O)(=O)/N=C(\N)c2ccc(C(N)=O)cc2)cc(C)c1F	3846	nt	nt	nt	-21	7	nt
COc1ccc(C2C(C(=O)NCc3ccccn3)CCC(=O)N2c2cc(OC)c(OC)c(OC)c2)cc1 (stereo not given)	5516	4.3	-9	4	-20	0	1
O=C(Oc1ccc2c(c1)OCO2)c1cccs1	4163	-0.3	nt	nt	-10	-6	6
Cc1ccc(OCC(=O)NC2CCS(=O)(=O)C2)cc1 (stereo not given)	5329	1.5	2	4	-24	7	0
CCC(Cc1ccccc1)NC(=O)CCn1cccc1 (stereo not given)	9951	0.1	nt	nt	-17	1	2
COc1cc2c(cc1OC)-c1c3c(cc4c1[C@@H](C2)N(C)CC4)OCO3	2838	nt	nt	nt	5	-2	nt
O=C(Cn1cnnn1)NCCc1ccc(Cl)cc1Cl	3842	-3.3	13	-4	-30	-14	-11
N#Cc1c(N=CC2C(=O)NC(=S)NC2=O)sc2c1CCCC2	nt	-2.7	5	-1	nt	nt	-5
CC(C)c1ccc(NC(=O)CN2CCN(C(=O)C3CCCO3)CC2)cc1 (stereo not given)	4487	5.9	7	-1	1	-1	10
Nn1c(SCC(=O)Nc2c(Cl)cccc2Cl)nncc1=O	4535	1.1	4	2	-17	1	15
Nc1cccc(Oc2cnccn2)c1	3028	0.6	9	-2	-8	-9	7
COc1ccccc1CNC(=O)COC(=O)CSc1ccc(C)c(C)c1	?	3.8	3	7	1	nt	6
CC(C)(C)NC(=O)NC(=O)CN1CCN(c2ccccc2O)CC1	3102	3.9	2	3	-19	2	9
Cc1ccc(CC(=O)NN=Cc2ccc3c(c2)OCO3)cc1	nt	3.5	7	5	nt	nt	7
O=C(CSc1nc2ccccc2c(=O)n1C1CC1)NCc1ccccc1	6028	3.5	15	12	-14	-8	-1
CC(=O)n1c(Cl)c(NC(=O)CCl)c2ccccc21	4868	6.3	nt	nt	-21	-3	1

Some of the entries so far, with values under each structure.
Order of results: Autofluor counter, RN4220 kill, Mtb hypoxia rep, Mtb hypoxia rep growth, PrP UTR inh, BJeLR viability, Sa ugtP lethal
- CN(CC(=O)N1CCN(c2ccccc2)CC1)C1CCCc2ccccc21 (stereo not given)
 : 3960, -1.6, 7, 10, -16, -2, 12
- Cc1ccc(OCC(=O)NNC(=O)c2ccc(-n3cncn3)c([N+](=O)[O-])c2)cc1
 : 6027, 0.7, 4, 2, -7, -1, 3
- CCNC(=O)C1CC(=O)N(CCCc2ccccc2)C(=Nc2ccccc2)S1 (stereo not given)
 : 6011, 3.7, 9, -4, -7, -8, 0
- COc1ccc(C(=NN)c2ccc(OC)cc2)cc1
 : 4359, 11, 15, 7, -42, 12, 27

Some entries already given, showing only BJeLR viability, Mtb hypoxia rep and Sa ugtP lethal:
SMILES	BJeLR viability	Mtb hypoxia rep	Sa ugtP lethal
O=C(CSc1nc2ccccc2c(=O)n1C1CC1)NCc1ccccc1	-8	15	-1
CC(=O)n1c(Cl)c(NC(=O)CCl)c2ccccc21	-3	nt	1
